Source: PubChem BioAssay (National Center for Advancing Translational Sciences (NCATS))
ClpP mod = qHTS Assay for Activators of ClpP; AID 651965, 2013; 340,000 compounds, 1.9% hits; ATP-dependent Clp protease proteolytic subunit (Bacillus subtilis (strain 168)), P80244; Potency, µM (top dose mostly 57.5 µM), without a hit: at the highest dose activity change, negative = active; purified B. subtilis ClpP, FRET peptide cleavage, 20 min; active = well fitted falling curve with a large enough effect; inconclusive = small, poorly fitted or top-dose-only effect; inactive = no such curve, though single readings can be large or run the other way; further: potency means the concentration at half of the fitted maximal effect; the source files actives as falling curves though it sought activators and does not explain the sign; nearly all actives have a fitted effect of over 65% in size; many hits overshoot -100%
Target sequence (P80244 whole entry, looked up): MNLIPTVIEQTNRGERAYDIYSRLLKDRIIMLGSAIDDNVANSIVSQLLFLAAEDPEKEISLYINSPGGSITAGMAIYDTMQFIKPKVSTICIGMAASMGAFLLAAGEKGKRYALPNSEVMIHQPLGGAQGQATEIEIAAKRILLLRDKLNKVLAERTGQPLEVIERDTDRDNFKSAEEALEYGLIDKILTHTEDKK
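Purified B. subtilis ClpP, 10 microg/mL final in Tris/HCl pH8 with KCl, BSA, glycerol and Tween-20, cleaved an Abz/nitrotyrosine-quenched decapeptide. Fluorescence (ex 320, em 430) was read at 0 and 20 min at room temperature. Delta was normalized to 5.8 microM ADEP and DMSO/no-enzyme controls.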
TRPML1 inh = human mucolipin-1 channel inhibition. activity change, negative = inhibition, % (no concentration beside the values). 390,000 compounds, 0.02% hits. TRPML1-inducible cells, Ca2+ dye fluorescence, FDSS; stronger effect = lower value; inhibition of EC80 agonist-evoked calcium signal. AID 624415. Q9GZU1; in the data active means activity change below about -50%; inconclusive means about -30% to -50%; inactive means above about -30%;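 further: stimulus is agonist 54-4 at its EC80 concentration; on the % scale 0 is the no-effect control and ±100 the full control effect; compound concentration not given in the record; the text of the record puts the active cut at -80%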
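TRPML1-DL cells, Tet-induced overnight (~16 h, 37 °C) at 1,500 cells/well, were loaded with Ca8 no-wash dye plus quencher for 45-90 min at room temperature. Compounds were pinned during FDSS kinetic reading; agonist 54-4 at EC80 (4 uM final) then added.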
Menin-MLL FL inh = menin-MLL binding inhibition, fluorescein peptide. FP activity change, % at 61.4 µM. Fluorescence polarization, fluorescein-MLL peptide displacement from menin. AID 1766. 290,000 tested, under 10 active; inconclusive = falling polarisation curve, or a change in total fluorescence; inactive = total fluorescence flat and polarisation flat or rising; no compound was filed as active; the % refers to the polarisation; negative = inhibition;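 further: % of control where 0% means no effect; inhibitors lower the polarisation; unlabelled MLL peptide was the positive control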
gsp antag = antagonists of gsp mutant (McCune-Albright syndrome) | gsp-mutant cells, cAMP HTRF, 30 min; control for the full effect not named in the record | Potency, µM (series often up to 76.9 µM), inactives show top-dose activity change, negative = inhibition, most hits filed as inhibitors | 340,000 compounds, 0.4% hits | AID 624288; active = falling curve of any shape with a large fitted effect; inconclusive = falling curve, mostly with a smaller effect; inactive = flat or rising curve; cell line not stated here;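 further: intracellular cAMP measured with PDE inhibitor Ro 20-1724 present during compound exposure; potency means the concentration at half of the fitted maximal effect; on the % scale 0 is the no-effect control and ±100 the full control effect; nearly all actives have a fitted effect of over 65% in size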
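Measurement of cellular cAMP by homogeneous time-resolved fluorescence following a 30 min compound exposure at 37C. The PDE inhibitor […] was present throughout; the assay buffer was DPBS with 0.05% BSA and 0.005% Tween 20.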
gsp ag = activates gsp, the McCune-Albright syndrome mutation | gsp mutant cells, cAMP HTRF, 30 min; control for the full effect not named in the record | Potency, µM (titrated, usually from 76.9 µM), without a hit: at the highest dose activation (cAMP increase), hits mostly activators | 340,000 compounds, 0.13% hits; active = well fitted activation curve with a large enough effect; inconclusive = small, poorly fitted or top-dose-only effect, or another doubt; inactive = no such curve, though single readings can be large or run the other way; cell line not stated here;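 further: phosphodiesterase inhibitor Ro 20-1724 added with compounds to block cAMP breakdown; potency means the concentration at half of the fitted maximal effect; nearly all actives have a fitted effect of over 60% in size; about a fifth of the inactives were tested at one dose only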
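Cells in DMEM/10% FBS with G418 were pretreated with compounds in DMSO plus […] (300 uM stock) for 30 min at 37C. cAMP was measured by HTRF (cAMP-d2 plus anti-cAMP antibody-K) after 30 min at room temperature.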
Sfp PPTase inh = Sfp phosphopantetheinyl transferase inhibition; 310,000 compounds, 3.5% hits; Potency, µM, for the others: max response, negative = inhibition, actives largely listed as inhibitors; Biochemical Sfp PPTase activity, qHTS; Q9F4F7; AID 1490; active means well fitted inhibition curve with a large enough effect; inconclusive means small, poorly fitted or top-dose-only effect, or another doubt; inactive means no such curve, though single readings can be large or run the other way;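 further: the enzyme is Sfp with the accession as filed and its product quenches rhodamine fluorescence; potency means the concentration at half of the fitted maximal effect; 0% = enzyme reaction without inhibitor and -100% = no enzyme wells; top concentration of the series not given in the record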
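Sfp 15 nM + cpd, 15 min RT; start w/ rhodamine-CoA 5 uM, BHQ-2-YbbR 12.5 uM (final); 50 mM Hepes pH 7.6, 10 mM MgCl2, 0.01% NP-40, 0.01% BSA; read 525/598 nm at 0 and 30 min.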
TRPV1 potentiator = potentiators of human vanilloid receptor 1 (TRPV1); Q8NER1; TRPV1-expressing cells, Fluo-8 calcium influx, capsaicin EC20 potentiation; host cell line not named in the record; control for the full effect not named in the record; potentiation, % at 8.33 µM; 320,000 compounds, 0.02% hits; active means potentiation above 80%; inconclusive means 30% to 80%; inactive means below 30%; further: 0% is about no effect
Target sequence (Q8NER1 whole entry, looked up): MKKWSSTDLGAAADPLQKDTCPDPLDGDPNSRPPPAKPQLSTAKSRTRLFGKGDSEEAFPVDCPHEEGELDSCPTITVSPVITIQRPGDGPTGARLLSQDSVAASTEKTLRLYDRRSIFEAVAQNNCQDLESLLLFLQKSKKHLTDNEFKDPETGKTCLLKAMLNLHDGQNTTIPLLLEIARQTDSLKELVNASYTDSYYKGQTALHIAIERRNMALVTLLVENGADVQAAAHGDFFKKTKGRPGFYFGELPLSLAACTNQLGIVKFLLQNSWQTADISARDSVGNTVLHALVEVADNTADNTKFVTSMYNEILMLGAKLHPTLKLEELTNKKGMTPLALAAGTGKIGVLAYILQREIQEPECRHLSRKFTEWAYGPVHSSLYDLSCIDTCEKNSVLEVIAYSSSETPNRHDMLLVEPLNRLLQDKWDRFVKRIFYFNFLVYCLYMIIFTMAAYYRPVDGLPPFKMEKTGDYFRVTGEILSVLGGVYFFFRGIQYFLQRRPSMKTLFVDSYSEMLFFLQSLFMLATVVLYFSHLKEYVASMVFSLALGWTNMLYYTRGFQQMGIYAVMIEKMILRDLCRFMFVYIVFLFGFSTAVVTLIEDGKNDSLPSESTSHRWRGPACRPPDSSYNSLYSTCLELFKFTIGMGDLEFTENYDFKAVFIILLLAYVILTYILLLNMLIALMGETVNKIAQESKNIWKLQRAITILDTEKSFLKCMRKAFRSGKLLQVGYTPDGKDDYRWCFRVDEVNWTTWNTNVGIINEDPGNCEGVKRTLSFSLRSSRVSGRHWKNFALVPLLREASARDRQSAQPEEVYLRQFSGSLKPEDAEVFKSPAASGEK
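Cells expressing TRPV1 were dye-loaded with Fluo-8 and read kinetically: 10 s baseline, 3 min after compound (agonist portion), then 2 min after EC20 capsaicin (allosteric enhancer portion). Calcium-bound dye fluorescence at 480/520 nm.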
An asterisk follows results filed as active; [ ] = dose if it differs, or a comment. No enrichment for hits; any-hit rate near 4.9%.

Cc1cc(N2C(=O)C3CCC(c4ccccc4)CC3C2=O)no1 (centres undefined) was read as TRPML1 inh 9, Menin-MLL FL inh 0.1, gsp antag 0%, gsp ag -1%, Sfp PPTase inh 10% and TRPV1 potentiator 0.
`CCOC(=O)c1cnc2ccc(OCC)cc2c1NCCN1CCOCC1` gave TRPML1 inh 17, Menin-MLL FL inh 4.3, gsp antag -21%, gsp ag -17%[15.4 µM], Sfp PPTase inh 5% and TRPV1 potentiator -18.
`Cc1ccnc(NC(=O)c2ccc(Cl)c(NC(=O)c3ccccc3C)c2)c1` gave ClpP mod 4.4%, TRPML1 inh -6, Menin-MLL FL inh 1.6, gsp antag 6%, gsp ag inconclusive, Sfp PPTase inh 13% and TRPV1 potentiator -21.
`OCCCNc1c2ccccc2nc2ccccc12` gave TRPML1 inh -5, Menin-MLL FL inh -10, gsp antag -16%, gsp ag -7%[15.4 µM], Sfp PPTase inh 7% and TRPV1 potentiator inconclusive.
Screening Cc1nc(-c2ccccc2O)n(-c2ccccc2)n1 returned ClpP mod 0.8%, TRPML1 inh 21, Menin-MLL FL inh 2.3, gsp antag 12%, gsp ag -24%, Sfp PPTase inh 6% and TRPV1 potentiator 2.
Screening CCc1nnc(NC(=O)CSc2nnc(Cc3cccn3C)n2C)s1 returned ClpP mod 2.1%, TRPML1 inh 10, Menin-MLL FL inh 11, gsp antag 2%, gsp ag -43%[inhibitor], Sfp PPTase inh inconclusive and TRPV1 potentiator inconclusive.
For CCCc1cc(=O)oc2cc(C)cc(OC(C)C(=O)NCc3ccccn3)c12 (centres undefined) the results were ClpP mod 3.7%, TRPML1 inh 6, gsp antag -15%, gsp ag inconclusive, Sfp PPTase inh 15% and TRPV1 potentiator 4.
For Nc1ccc2ccccc2c1N=Nc1ccccc1 the results were TRPML1 inh -8, gsp antag -21% and gsp ag -8%.
`O=C(Nc1ccon1)c1cc2ccccc2oc1=O` gave ClpP mod inconclusive, TRPML1 inh -6, Menin-MLL FL inh 2.7, gsp antag 2%, gsp ag 24%, Sfp PPTase inh -7% and TRPV1 potentiator 0.
`CC(=O)N(C)c1ccc(NS(=O)(=O)Cc2ccccc2)cc1` gave ClpP mod 0.2%, TRPML1 inh -3, Menin-MLL FL inh 3.6, gsp antag 0%, gsp ag 13%, Sfp PPTase inh -12% and TRPV1 potentiator -4.
`CN(C(=O)Nc1cnccc1C(F)(F)F)C1CCCCC1` gave TRPML1 inh 0, Menin-MLL FL inh 0.5, gsp antag 6%, gsp ag -4%, Sfp PPTase inh 19% and TRPV1 potentiator 5.
For Cc1c(O)c2c3c(cccc3c1O)C(=O)N(c1ccccc1)C2=O the results were ClpP mod -1.4%, TRPML1 inh 15, Menin-MLL FL inh inconclusive, gsp antag 3%, gsp ag inconclusive, Sfp PPTase inh -17% and TRPV1 potentiator 4.
For O=C(COC(=O)CNC(=O)c1cccc(Br)c1)Nc1nnc(-c2ccccc2)o1 the results were ClpP mod -2.6%, TRPML1 inh 5, gsp antag 4%, gsp ag 2% and TRPV1 potentiator 6.
For COc1ccc(CCNC(C)=O)cc1 the results were ClpP mod -1.0%, TRPML1 inh -14, Menin-MLL FL inh 0.7, gsp antag 6%, gsp ag -13%, Sfp PPTase inh 9% and TRPV1 potentiator 1.
Screening O=C(O)C1Cc2ccccc2CN1C(=O)COc1ccc(Cl)cc1Cl (centres undefined) returned TRPML1 inh 5, Menin-MLL FL inh 5.4, gsp antag 0%, gsp ag 7%[15.4 µM], Sfp PPTase inh 15% and TRPV1 potentiator 14.
CCCn1c(SCC(=O)N2CCCC(C)C2)nnc1-c1cccnc1 (centres undefined) was read as TRPML1 inh -12, Menin-MLL FL inh 3.0, gsp antag -1%, gsp ag -1%[15.4 µM], Sfp PPTase inh 12% and TRPV1 potentiator -1.
For CC(C)(CC(=O)O)Cc1nc(-c2ccc(Cl)cc2)no1 the results were ClpP mod 0.6%, TRPML1 inh 6, Menin-MLL FL inh -5.3, gsp antag -1%, gsp ag -12%, Sfp PPTase inh 5% and TRPV1 potentiator -3.
For Cc1ccc(NC(=O)C(NCc2ccccn2)c2ccccc2)cc1 (centres undefined) the results were ClpP mod 0.1%, TRPML1 inh 6, Menin-MLL FL inh -6.9, gsp antag -3%, gsp ag -2%[15.4 µM], Sfp PPTase inh 8% and TRPV1 potentiator -2.
Screening CC(NC(=O)COC(=O)C1CCN(c2ccc(C(F)(F)F)cn2)CC1)c1ccc(Br)cc1 (centres undefined) returned ClpP mod -16%, TRPML1 inh 5, gsp antag inconclusive, gsp ag -21%[15.4 µM], Sfp PPTase inh 21% and TRPV1 potentiator -14.
For O=C(c1ccc2ccccc2n1)N(CCO)Cc1ccccc1 the results were ClpP mod -0.5%, Menin-MLL FL inh -0.1, gsp antag 0%, gsp ag -37%[inhibitor], Sfp PPTase inh 0% and TRPV1 potentiator 4.
Screening CC1(C)CC2(CC(C)(C)N1)OC(=O)N1CCc3ccccc3C12C (centres undefined) returned ClpP mod 0.9%, TRPML1 inh 30, Menin-MLL FL inh -1.2, gsp antag 3%, gsp ag 24%, Sfp PPTase inh 15% and TRPV1 potentiator -3.
`CC1c2cccn2CCN1S(=O)(=O)c1ccc(F)cc1` (centres undefined) gave ClpP mod -0.7%, TRPML1 inh -10, gsp antag -1%, gsp ag 5% and TRPV1 potentiator 20.
CCc1nc2ccccc2c(C(=O)OCC(=O)NC(=O)c2cccn2C)c1C was read as ClpP mod -1.0%, TRPML1 inh 56, Menin-MLL FL inh 8.2, gsp antag -21%, gsp ag -4%, Sfp PPTase inh -4% and TRPV1 potentiator -1.
Screening Cc1cc(C(=O)OCC(=O)Nc2ccc(S(N)(=O)=O)cc2)c2ccccc2n1 returned ClpP mod -12%, TRPML1 inh -17, Menin-MLL FL inh 4.6, gsp antag 6%, gsp ag -11%, Sfp PPTase inh 0% and TRPV1 potentiator -3.
COc1ccc(-c2csc(-c3ccc(C(=O)O)cc3)n2)cc1 was read as ClpP mod 3.7%, TRPML1 inh 31, Menin-MLL FL inh -1.8, gsp antag -36%, gsp ag 0%, Sfp PPTase inh 3% and TRPV1 potentiator 1.
Screening Nc1nonc1-n1nnc(C(=O)N/N=C/c2ccc(F)cc2)c1-c1ccc2c(c1)OCO2 returned ClpP mod -13%, TRPML1 inh 3, gsp antag 0%, gsp ag 31%, Sfp PPTase inh 9% and TRPV1 potentiator 7.
CCC1(c2ccc(F)cc2)NC(=O)N(CC(=O)Nc2cc(C)on2)C1=O (centres undefined) was read as ClpP mod 0.6%, TRPML1 inh 5, gsp antag 1%, gsp ag 2% and TRPV1 potentiator -2.
COC(=O)C1C(=O)NC(SC)=C(C#N)C1c1ccccc1 (centres undefined) was read as ClpP mod -0.7%, TRPML1 inh 58, Menin-MLL FL inh 3.3, gsp antag -12%, gsp ag -19%, Sfp PPTase inh 14% and TRPV1 potentiator 8.
For O=C(NCc1ccccc1Cl)C1CCN(C(=O)c2sccc2-n2cccc2)CC1 the results were ClpP mod 0.7%, TRPML1 inh -4, Menin-MLL FL inh -1.0, gsp antag -8%, gsp ag -19%, Sfp PPTase inh 7% and TRPV1 potentiator -18.
N#Cc1cc(C(=O)c2cc(Br)ccc2O)cn(C2CC2)c1=O was read as ClpP mod 28%, TRPML1 inh 7, Menin-MLL FL inh inconclusive, gsp antag -7%, gsp ag inconclusive, Sfp PPTase inh -16% and TRPV1 potentiator 23.
Cc1ccc(S(=O)(=O)N2CCN(C(=O)CCn3cncn3)CC2)cc1C was read as TRPML1 inh -8, gsp antag -25%, gsp ag 8%[15.4 µM], Sfp PPTase inh 17% and TRPV1 potentiator inconclusive.
For CCOn1c(=O)c(=O)n(OC)c2ccccc21 the results were ClpP mod -0.4%, TRPML1 inh 24, Menin-MLL FL inh 2.8, gsp antag -2%, gsp ag -16%, Sfp PPTase inh 19% and TRPV1 potentiator 4.
Screening O=C(CCn1cccc1)NC1CCCc2ccccc21 (centres undefined) returned ClpP mod 0.5%, TRPML1 inh -16, Menin-MLL FL inh 4.9, gsp antag -12%, gsp ag -29%, Sfp PPTase inh 18% and TRPV1 potentiator 15.
COc1cc(CNCC(C)C)cc(Br)c1OCC(=O)Nc1ccccc1 was read as ClpP mod 5.2%, TRPML1 inh 11, Menin-MLL FL inh 0.2, gsp antag 0%, gsp ag -17%, Sfp PPTase inh -1% and TRPV1 potentiator -6.
COC(=O)Cc1c(C)c2ccc(OCC(=O)N3CCC(C)CC3)c(C)c2oc1=O was read as ClpP mod -15%, TRPML1 inh -2, gsp antag -15%, gsp ag 4%[15.4 µM], Sfp PPTase inh 1% and TRPV1 potentiator -10.
`CCCCCCCCCCCCCCCC(O)C[N+](C)(C)CCO` (centres undefined) gave ClpP mod inconclusive, TRPML1 inh -13, gsp antag 11% and gsp ag -14%.
For O=C(NCCc1ccc(Cl)cc1)C1CCN(C(=O)N2CCOc3ccccc32)CC1 the results were ClpP mod -2.0%, TRPML1 inh 14, Menin-MLL FL inh 0.7, gsp antag -11%, gsp ag -2%, Sfp PPTase inh 14% and TRPV1 potentiator -1.
CCn1c(C)nc2cc(C#N)ccc21 was read as TRPML1 inh 22, Menin-MLL FL inh 0.8, gsp antag 3%, gsp ag -5%[15.4 µM], Sfp PPTase inh 25% and TRPV1 potentiator -2.
